Screening results (PubChem BioAssay)
HNF4A DNA FP – change in binding of human HNF4 alpha to DNA; P41235; HNF4a-FITC DNA binding, fluorescence polarization, 1 h; activity change, % at 10 µM; hit rate 0.3% among 360,000; AID 1224865; in the data active = activity change above about 30%, passing the limit was not always enough;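 note: controls were the assay level and a saturating level of protein; the project sought stronger binding though the title names inhibitors; some compounds called inactive have numbers as strong as hits; positive values seem to mean higher polarization but the record does not say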
Target sequence (P41235 whole entry, looked up): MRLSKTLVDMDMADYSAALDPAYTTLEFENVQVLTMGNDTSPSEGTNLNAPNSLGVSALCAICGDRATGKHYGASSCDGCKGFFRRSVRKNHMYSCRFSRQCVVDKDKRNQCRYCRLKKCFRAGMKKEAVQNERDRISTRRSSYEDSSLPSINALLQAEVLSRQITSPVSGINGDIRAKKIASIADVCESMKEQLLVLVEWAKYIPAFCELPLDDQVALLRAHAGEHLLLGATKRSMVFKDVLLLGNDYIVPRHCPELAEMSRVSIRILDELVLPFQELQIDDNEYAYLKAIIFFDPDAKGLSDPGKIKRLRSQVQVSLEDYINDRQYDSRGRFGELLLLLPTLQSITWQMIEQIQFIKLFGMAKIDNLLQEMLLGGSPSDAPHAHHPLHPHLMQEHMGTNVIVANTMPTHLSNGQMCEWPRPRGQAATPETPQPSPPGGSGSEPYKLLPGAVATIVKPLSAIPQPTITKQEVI
MLL AF4-AF9 inh – inhibitors of human MLL-AF4/AF9 interaction. P42568. AlphaScreen, biotin-AF4 peptide binding to FLAG-AF9. inhibition, % at 10 µM. hit rate 0.47% among 350,000;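 active = every replicate reaching a set inhibition limit, whatever the replicate mean, cut at about 25% in these data; inconclusive = mean inhibition reaches that limit but some replicates miss it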;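 note: 0% = plate neutral control median and 100% = total signal loss; the record names both 10 and 1 µM as test concentration; the first replicate is given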
Vif TR-FRET – inhibitors of Vif binding to APOBEC3G peptide, primary screen, biochemical, TR-FRET, GST-Vif 1-94, biotin-A3G peptide, dose response retest (AID 1117319); one-dose inhibition, %; IC50 in µM for titrated hits; TR-FRET GST-Vif / biotin-A3G peptide binding; higher % means a stronger effect; test concentration not given here; strong numbers were not always called active; hit rate 0.57% among 260,000;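 active = above the screen mean plus three standard deviations and confirmed in dose response; inconclusive = results disagree or hit not tested in dose response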;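 note: Vif residues 1-94 fused to GST binding biotinylated APOBEC3G peptide 110-148; 0% = full assay without inhibitor and 100% = GST in place of GST-Vif; retest series ran down from 100 µM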
E coli growth – blocks Escherichia coli growth; OD600 absorbance (concentration not given with the values); OD600, 23 h; active compounds read low; hit rate 0.21% among 330,000; AID 1053175;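 active = OD600 absorbance below the run mean of sample wells minus 3.6 SD, in any replicate, cut at about 0.56 in these data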;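 note: stock transfer was 300 nL into about 60 µL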
rRNA inh HTS – inhibitors of bacterial rRNA selective over humanized ribosomes. hit rate 1.6% among 350,000. GFP signal change (wild-type ribosome), % (concentration not given with the values). AID 720706. E. coli WT GFP vs humanized-ribosome RFP mutants, fluorescence, 24 h; active compounds read low; DMSO median 0, no signal -100;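 active = significant combined selectivity score with lowered wild-type GFP, culture density cut under 30%, mutant RFP and density less affected; inactive = any of these conditions unmet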; note: one replicate is shown; some compounds called inactive have numbers as strong as hits
FGF22 binding – FGF22 (human) thermal shift binding | Q9HCT0 | hit rate 1.5% among 340,000 | calls only at 9.99 µM | recombinant FGF22 thermal shift, SYPRO orange fluorescence; percent of sucrose octasulfate shift, DMSO zero | AID 651658;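 active = melting point raised past a set limit in the mean and every replicate; inconclusive = no clear call; three in four hits are not shown here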
Target sequence (Q9HCT0 whole entry, looked up): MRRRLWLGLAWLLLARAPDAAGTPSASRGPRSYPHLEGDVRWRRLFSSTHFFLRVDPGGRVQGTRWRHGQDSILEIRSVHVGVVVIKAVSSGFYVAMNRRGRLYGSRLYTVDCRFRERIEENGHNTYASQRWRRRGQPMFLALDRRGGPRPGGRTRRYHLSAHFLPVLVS
ALR inh – blocks human ALR sulfhydryl oxidase activity. hit rate 3.8% among 290,000. inhibition, % (test concentration not listed). P55789. AID 485317. purified ALR, DTT oxidation, H2O2 HRP-luminol luminescence;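 active = mean and each replicate at 75% or more; inconclusive = only one of the two met; inactive = neither met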;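 note: stock transfer was 7.5 nL into about 7.5 µL; 0% = neutral wells and 100% = wells with inactivated enzyme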
Target sequence (P55789 whole entry, looked up): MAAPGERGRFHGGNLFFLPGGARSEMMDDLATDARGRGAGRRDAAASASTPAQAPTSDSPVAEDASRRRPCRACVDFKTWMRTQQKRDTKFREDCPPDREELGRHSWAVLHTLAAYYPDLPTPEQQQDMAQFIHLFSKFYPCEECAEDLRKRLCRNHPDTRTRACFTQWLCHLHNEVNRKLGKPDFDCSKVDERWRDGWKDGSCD
rRNA inh HTS OD600 – also measured in rRNA inh HTS; calls as there; OD600 change, %; measured here: OD600 growth;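 optical density of the mix in the first replicate; 0 = DMSO median and -100 = no signal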
rRNA inh HTS RFP – second read-out of rRNA inh HTS, no call of its own (marks repeat the call); RFP signal change, %; measured here: RFP humanized mutant strains;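 first replicate; 0 = DMSO median and -100 = no signal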
* = called active by the depositor; i = inactive; ? = inconclusive; nt = not tested or not shown; + = active, no number; & = joins results of further samples. An excerpt, so the mix of outcomes need not match the whole.

no.	HNF4A DNA FP	MLL AF4-AF9 inh	Vif TR-FRET	E coli growth	structure	rRNA inh HTS	rRNA inh HTS OD600	rRNA inh HTS RFP	FGF22 binding	ALR inh
1	7.5	nt	1%	0.75	CCc1ccc2oc(=O)cc(CN3CCN(c4ccc(F)cc4)CC3)c2c1	nt	nt	nt	nt	1
2	4.9	-2.2	-3%	0.66	COc1ccc(CCNC(=O)CN(c2cccc([N+](=O)[O-])c2)S(C)(=O)=O)cc1	11	13	1.2	i	-2
3	-4.6	-1.8	-12%	nt	COc1cccc(/C=N/NC(=O)CCC(=O)Nc2ccc(Br)cc2)c1	0	9	-0.1	i	1
4	nt	-0.3	nt	nt	COCCNC(=O)C[C@H]1CC[C@@H]2[C@@H](COc3ccc(NC(=O)c4cc(C)on4)cc3C(=O)N2C)O1	0	5	2.6	i	nt
5	nt	-1.1	nt	nt	O=C(C[C@@H]1C[C@@H]2c3cc(NS(=O)(=O)c4ccc(F)cc4)ccc3O[C@@H]2[C@H](CO)O1)N1CCCCC1	-2	-29	1.0	i	nt
6	nt	-0.3	nt	nt	CCC(=O)Nc1ccc2c(c1)C(=O)N(C)[C@H]1CC[C@@H](CC(=O)NCCc3ccccc3)O[C@H]1CO2	0	-4	-2.8	i	nt
7	-1.6	-77	nt	0.72	CN(Cc1ccccc1)C(=O)COC(=O)C1=NNC(=O)CC1	6	4	0.8	i	2
8	nt	2.0	nt	nt	C[C@H](CO)N1C[C@H](C)[C@@H](CN(C)S(=O)(=O)c2ccccc2F)Oc2cc(-c3ccccc3)ccc2S1(=O)=O	-2	2	-0.8	i	nt
9	4.8	nt	nt	0.69	OC1(c2ccc(F)cc2)CN(c2ccccc2)C2=[N+]1CCS2 (centres undefined)	nt	nt	nt	nt	0
10	nt	0.4	nt	nt	Cc1noc(C)c1NC(=O)N(C)C[C@H]1OCCCC[C@@H](C)Oc2ccc(NC(=O)C3CCCCC3)cc2C(=O)N([C@@H](C)CO)C[C@H]1C	-1	2	3.3	i	nt
11	nt	-14	nt	nt	O=C(C1CC1)N1C[C@H]2[C@@H](c3ccccc31)[C@@H](CO)N2C(=O)c1ccccn1	4	5	-1.2	i	nt
12	nt	-2.6	nt	nt	C[C@@H]1CN([C@H](C)CO)C(=O)c2cc(Br)cnc2O[C@@H]1CN(C)C(=O)C1CCCCC1	2	9	-3.3	i	nt
13	nt	-1.4	nt	nt	Cc1ccc(S(=O)(=O)N(C)C[C@H]2Oc3ccc(NC(=O)CCC(F)(F)F)cc3C(=O)N([C@H](C)CO)C[C@@H]2C)cc1	-4	-6	0.2	i	nt
14	-0.9	0.1	12%	0.69	CC(C)(C)CNc1cc(N2CCCC2)ccc1[N+](=O)[O-]	4	8	10	i	-12
15	nt	-1.2	nt	nt	C[C@H](CO)N1C[C@H](C)[C@@H](CN(C)Cc2ccc(-c3ccccc3)cc2)Oc2ccc(NS(=O)(=O)c3ccc(Cl)cc3)cc2C1=O	0	-14	4.8	i	nt
16	2.1	0.1	nt	0.7	CCOc1ccc(S(=O)(=O)N2CCN(c3ncccn3)CC2)cc1	6	3	7.0	i	-6
17	3.7	-3.1	7%	0.71	O=C(Nc1cccc2nsnc12)c1cccnc1	nt	nt	nt	i	-61
18	nt	0.6	nt	nt	C[C@H]1CN([C@@H](C)CO)S(=O)(=O)c2ccc(-c3ccc(C(=O)N(C)C)cc3)cc2O[C@H]1CN(C)C(=O)C1CCCCC1	0	5	0.6	i	nt
19	3.9	-4.8	6%	0.68	O=S(=O)(Nc1nccs1)c1ccc(NS(=O)(=O)c2c(F)cc(F)c(Cl)c2F)cc1	4	6	6.1	nt	-2
20	nt	-3.0	nt	nt	C[C@@H]1CN([C@H](C)CO)C(=O)Cc2cc(NC(=O)C3CC3)ccc2O[C@@H]1CN(C)Cc1ccc(Cl)c(Cl)c1	-17	-45	6.7	i	nt
21	-1.7	8.5	12%	0.75	Cc1ccc(OCCn2cc(/C=C(\C#N)C(=O)NCC3CCCO3)c3ccccc32)cc1 (centres undefined)	nt	nt	nt	i	-3
22	nt	-0.4	nt	nt	Cc1ccc(S(=O)(=O)Nc2ccc3c(c2)C(=O)N([C@H](C)CO)C[C@H](C)[C@H](CN(C)S(C)(=O)=O)OCCCC[C@@H](C)O3)cc1	4	11	-0.3	i	nt
23	nt	0.6	nt	nt	C[C@@H]1CN([C@@H](C)CO)C(=O)Cc2cc(NS(C)(=O)=O)ccc2O[C@@H]1CN(C)S(=O)(=O)c1cccs1	2	2	-4.0	i	nt
24	nt	-3.2	nt	nt	CCN(C[C@H]1[C@H](c2ccccc2)[C@H](CO)N1CC1CC1)C(=O)c1ccccn1	1	4	-2.7	i	nt
25	4.9	-0.6	nt	0.68	O=C(CCNC(=O)C1CCN(S(=O)(=O)c2ccc(F)cc2)CC1)NC1CC1	-1	4	-1.4	nt	-3
26	2.1	nt	-4%&3%	0.74	CCOC(=O)C1=C(C)N(C)C(C)=C(C(=O)OCC)C1c1ccc(C(=O)OC)cc1	nt	nt	nt	nt	1
27	2.3	0.4	3%	0.75	CCOC(=O)c1c(C)oc2cc(Br)c(O)c(Br)c12	-33	-48	-9.5	+	41
28	nt	0.9	nt	nt	O=C(C[C@@H]1CC[C@@H](NS(=O)(=O)c2ccc(F)cc2)[C@@H](CO)O1)NC1CCC1	0	11	-0.5	i	nt
29	-3.9	nt	1%	0.71	Cc1ccc(C(=O)CSc2nn3c(=O)c(C(C)(C)C)nnc3s2)cc1	nt	nt	nt	nt	98*
30	5.0	?	nt	0.71	CCn1cnc2c(Nc3cccc(Cl)c3)nc(C#N)nc21	-4	-10	-2.1	i	8
31	-0.2	-1.4	nt	0.7	COc1ccc(-n2nc(C(=O)NCC(=O)NCCCN3CCOCC3)c3ccccc3c2=O)cc1Cl	3	7	1.4	i	-6
32	-2.1	33*	29%	0.71	CN(CCc1ccccc1)C(=O)c1ccc(NC(=O)Cc2ccc(NC(=O)C3CCN(C(=O)C4CCCC4)CC3)cc2)cc1	-8	5	1.3	nt	nt
33	1.9	0.9	3%	0.7	CCN(CC)CCn1c2c(c(SCC(=O)Nc3ccccc3Cl)nc1=O)CCCC2	15	5	-0.9	i	-16
34	1.8	nt	?	nt	O=C(O)C1C2CCC(O2)C1C(=O)Nc1ccc(O)cc1 (centres undefined)	nt	nt	nt	nt	7
35	1.9	nt	-4%	0.68	O=C(COC(=O)Cc1cn2ccsc2n1)NC12CC3CC(CC(C3)C1)C2	nt	nt	nt	nt	-1
36	4.4	-2.9	nt	nt	O=C(N/N=C/c1cccc2ccccc12)c1cccs1	-15	-4	5.1	i	1
37	-2.6	1.7	-1%	0.65	CC1CN(Cc2ccccc2)C(=O)N(c2ccccc2)C1=O (centres undefined)	19	9	1.7	i	nt
38	-2.0	-3.0	9%	0.68	CSc1ccc(CN2CCN(C(=O)c3ccncc3)CC2)cc1	21	12	-0.2	i	-4
39	-0.4	2.2	-13%	0.66	CC(=O)Nc1c(Cl)cc2c(c1Cl)Cc1ccccc1-2	nt	nt	nt	i	nt
40	9.1	2.8	nt	0.64	Cc1nc2ccc(Nc3ccncc3)cc2s1	10	0	-5.1	i	-5
41	nt	1.3	nt	nt	C[C@@H]1CN([C@H](C)CO)C(=O)c2cc(/C=C/c3ccccc3)cnc2O[C@H]1CN(C)C	6	5	-1.2	i	nt
42	4.5	14	-5%	0.69	CCC1(C)NC(=O)N(CC(=O)N2CCC(Cc3ccccc3)CC2)C1=O (centres undefined)	-4	-6	-0.4	i	1
43	-1.4	nt	-5%	0.72	COc1ccccc1N1CCN(C(=O)Cn2c(=O)[nH]c3ccsc3c2=O)CC1	nt	nt	nt	nt	nt
44	-2.2	-3.8	-1%	0.72	COc1ccc(NC(=O)Nc2nnc(-c3ccncc3)s2)cc1	2	17	-2.8	i	-9
45	0.6	-3.2	-4%	0.71	CNS(=O)(=O)c1ccc(C(=O)NCC(=O)NCCc2ccc3c(c2)OCCO3)cc1	5	6	1.2	i	nt
46	nt	-2.9	nt	nt	C[C@@H]1CCCCO[C@@H](CN(C)C(=O)CCC(F)(F)F)[C@H](C)CN([C@H](C)CO)C(=O)c2cc(NS(=O)(=O)c3ccc(F)cc3)ccc2O1	-2	-9	1.0	i	nt
47	2.5	-0.9	-4%	0.71	NC(=O)c1cc(S(=O)(=O)NCCc2ccc(S(N)(=O)=O)cc2)cs1	12	14	2.0	i	-1
48	-0.7	-63	-3%	0.68	CCSc1nc2ccccc2n1Cc1nc(N)nc(N(C)C)n1	9	8	-2.6	i	1
49	1.2	-8.8	2%	0.7	Fc1ccc(OCc2nc(-c3ccc(Br)o3)no2)c(F)c1	-2	-8	1.0	i	5
50	3.6	nt	20%	0.7	Cc1c(CNC2CCCC2)c(C(=O)O)c(C)n1Cc1ccccc1	nt	nt	nt	nt	-3

The listing continues.
no.	HNF4A DNA FP	MLL AF4-AF9 inh	Vif TR-FRET	E coli growth	structure	rRNA inh HTS	rRNA inh HTS OD600	rRNA inh HTS RFP	FGF22 binding	ALR inh
51	-2.4	nt	nt	0.7	O=C(NCCc1ccccc1)Nc1ccc(Cl)cc1	nt	nt	nt	nt	-9
52	0.4	nt	-2%	0.72	O=C1C(C=NCCN2CCOCC2)=C(O)c2ccccc21	nt	nt	nt	nt	nt
53	nt	-2.6	nt	nt	Cc1ccc(S(=O)(=O)N2CC[C@@H]3[C@H]2c2cc(C#Cc4ccccc4F)ccc2N[C@@H]3CO)cc1	3	5	1.2	i	nt
54	-1.9	-13	-1%	0.71	COCCCNS(=O)(=O)c1ccc2[nH]c(=O)[nH]c2c1	15	6	-1.3	i	-15
55	-2.3	nt	nt	0.69	CCn1ncc(/C=C/C(=O)c2ccccc2)c1C	nt	nt	nt	nt	6
56	16	12	nt	nt	CC(C)(C)S(=O)N1Cc2cc(C(=O)NCc3ccc(Oc4ccccc4)cc3)nc(-c3cccc(-c4cc5ccccc5o4)c3)c2[C@H]1CCO (some centres undefined)	8	9	34	i	nt
57	-0.6	4.1	2%	nt	O=C(Oc1ccc(/C=N/O)cc1)c1ccccc1Cl	-29*	-23*	-2.8*	i	99*
58	1.0	-2.9	nt	0.7	COc1ccccc1OCC(=O)NCCS(=O)(=O)N1CCN(c2ccc(F)cc2)CC1	-7	-13	0.5	i	11
59	-6.6	-0.3	-3%	0.66	CSc1nc(N(C)C)nc(N(C#N)CCOC(C)=O)n1	-20	-15	-2.9	i	-16
60	2.5	nt	3%	0.74	O=C(CN1CCN(c2ccccn2)CC1)NCCc1ccccc1	nt	nt	nt	nt	5
61	-0.1	nt	14%	0.7	COc1ccc(Cl)cc1NC(=O)C1CCCO1 (centres undefined)	nt	nt	nt	nt	-13

Exported bar-delimited: part of the list above
No. | SMILES | HNF4A DNA FP | MLL AF4-AF9 inh | Vif TR-FRET | E coli growth | rRNA inh HTS | rRNA inh HTS OD600 | rRNA inh HTS RFP | FGF22 binding | ALR inh
54 | COCCCNS(=O)(=O)c1ccc2[nH]c(=O)[nH]c2c1 | -1.9 | -13 | -1% | 0.71 | 15 | 6 | -1.3 | i | -15
55 | CCn1ncc(/C=C/C(=O)c2ccccc2)c1C | -2.3 | nt | nt | 0.69 | nt | nt | nt | nt | 6
56 | CC(C)(C)S(=O)N1Cc2cc(C(=O)NCc3ccc(Oc4ccccc4)cc3)nc(-c3cccc(-c4cc5ccccc5o4)c3)c2[C@H]1CCO (some centres undefined) | 16 | 12 | nt | nt | 8 | 9 | 34 | i | nt
57 | O=C(Oc1ccc(/C=N/O)cc1)c1ccccc1Cl | -0.6 | 4.1 | 2% | nt | -29* | -23* | -2.8* | i | 99*
58 | COc1ccccc1OCC(=O)NCCS(=O)(=O)N1CCN(c2ccc(F)cc2)CC1 | 1.0 | -2.9 | nt | 0.7 | -7 | -13 | 0.5 | i | 11
